Screening data deposited in PubChem by Johns Hopkins Ion Channel Center.
KCNQ2 inh: KCNQ2 channel blockers in CHO-K1 cells – cell-based, FluxOR thallium flux, B-score, primary screen (AID 2156); B-score at 10 µM; 310,000 tested, 1.1% active; 20 min; active compounds read low; only compounds with negative scores are shown here; some inactives read as strong as hits;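 active = fluorescence ratio B-score at most minus 3 library SDs, with starting brightness B-score within 2 library SDs, cut at about -5.5 in these data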
Target sequence (O88943 whole entry, looked up): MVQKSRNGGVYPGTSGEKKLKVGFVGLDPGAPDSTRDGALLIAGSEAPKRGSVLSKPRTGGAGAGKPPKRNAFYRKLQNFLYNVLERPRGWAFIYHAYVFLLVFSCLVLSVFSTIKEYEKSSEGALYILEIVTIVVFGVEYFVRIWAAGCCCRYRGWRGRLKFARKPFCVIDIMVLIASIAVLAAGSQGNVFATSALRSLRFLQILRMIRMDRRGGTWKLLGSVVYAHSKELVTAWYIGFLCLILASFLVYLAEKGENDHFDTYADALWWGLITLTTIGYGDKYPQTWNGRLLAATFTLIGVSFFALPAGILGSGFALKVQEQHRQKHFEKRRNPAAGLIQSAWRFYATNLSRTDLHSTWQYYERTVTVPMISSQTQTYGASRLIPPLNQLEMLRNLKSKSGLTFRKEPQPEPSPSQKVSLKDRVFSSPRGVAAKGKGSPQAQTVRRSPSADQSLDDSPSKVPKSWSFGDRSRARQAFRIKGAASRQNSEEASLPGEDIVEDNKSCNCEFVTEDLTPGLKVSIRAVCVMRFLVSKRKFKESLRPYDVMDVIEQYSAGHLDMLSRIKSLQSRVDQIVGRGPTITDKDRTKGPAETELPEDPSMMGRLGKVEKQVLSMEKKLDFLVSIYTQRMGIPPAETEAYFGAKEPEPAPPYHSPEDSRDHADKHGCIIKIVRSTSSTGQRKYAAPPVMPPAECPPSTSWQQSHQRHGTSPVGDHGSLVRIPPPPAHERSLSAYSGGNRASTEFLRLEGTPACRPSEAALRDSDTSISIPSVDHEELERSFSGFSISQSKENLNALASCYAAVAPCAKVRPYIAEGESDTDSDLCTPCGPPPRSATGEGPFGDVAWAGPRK
KCNQ2 inh baseline: second read-out of KCNQ2 inh, no call of its own (marks repeat the call); B-score; measured here: initial fluorescence intensity artifact check;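 brightness before thallium and not channel activity; 0 = typical well and far values either way flag optical interference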
Active calls of the source: *; i = inactive. Only part of the results is shown, so the mix of outcomes need not match the whole.

SMILES | KCNQ2 inh baseline | KCNQ2 inh
Cc1ccc(C(=O)Nc2ncc(Cc3ccc(SC(F)F)cc3)s2)cc1 | 0.08 | i
O=C(CSc1nc(=O)n2ccccc2n1)NCc1ccccc1Cl | 0.08 | i
COc1cc(CNn2c(C)n[nH]c2=S)cc(Cl)c1OCC(=O)NC(C)(C)C | -1.2 | i
CNc1ccccc1C(C)(C)c1cc(-c2ccco2)n[nH]1 | -0.12 | i
CCc1cccc(C)c1NC(=O)CN(C)Cc1cccc(F)c1 | -1.5 | i
Cc1ccc(CCNC(=O)CN(C)S(=O)(=O)c2ccc3c(c2)c(=O)n(C)c(=O)n3C)cc1 | -0.94 | i
COc1ccc(CNC2CCCc3ccccc32)c(OC)c1 (stereo not drawn) | -0.78 | i
Cc1cc(C)n(C2=NS(=O)(=O)c3ccccc32)n1 | 0.36 | i
COc1ccccc1C(=O)N1CCN(c2nc3cc(C)c(C)cc3cc2C#N)CC1 | -0.34 | i
O=C(C1=C[C@@H](c2ccc3c(c2)OCO3)C[C@@H](OCc2ccc(CO)cc2)O1)N1CCOCC1 | -0.84 | i
CC1CCN(C(=O)CN2C(=O)C(=O)c3ccccc32)CC1 | 3.6 | i
Cc1ccccc1C(=O)NC(C(N)=O)P(=O)(OC(C)C)OC(C)C (stereo not drawn) | -1.5 | i
Cc1ccc(=O)n(C(C(=O)NCc2ccco2)C(=O)c2ccc(F)cc2)c1 (stereo not drawn) | -2.4 | i
O=C(NC1CCCCC1)N1CCN(c2nc(-c3ccccc3)cs2)CC1 | 3.2 | i
O=c1c2ccccc2nc(SCc2ccc([N+](=O)[O-])cc2)n1-c1ccccc1 | -2.2 | i

Whole records from above. Order of values: KCNQ2 inh baseline, KCNQ2 inh
Record of O=c1c2ccccc2nc(SCc2ccc([N+](=O)[O-])cc2)n1-c1ccccc1 → -2.2, i
Record of O=C(C1=C[C@@H](c2ccc3c(c2)OCO3)C[C@@H](OCc2ccc(CO)cc2)O1)N1CCOCC1 → -0.84, i

New compounds follow.
SMILES | KCNQ2 inh baseline | KCNQ2 inh
CNC(C)c1cc(OC)ccc1OC (stereo not drawn) | 0.24 | i
CCOC(=O)N1CCc2c(sc(NC(=O)CN3CCOCC3)c2C(=O)Nc2ccccc2)C1 | 0.77 | i
O=C(NC(c1ccccc1)c1ccccc1)N1CCOCC1 | 0.71 | i
Cc1ccc(OCC(=O)NNc2c3ccccc3nc3ccccc23)cc1 | -1.1 | i
COc1ccccc1NC(=O)C(C)NS(=O)(=O)c1ccc(Cl)cc1 (stereo not drawn) | 0.42 | i
CSCCC(C(=O)OCC(=O)c1ccc(C)c(C)c1)N1C(=O)c2cc(Cl)c(Cl)cc2C1=O (stereo not drawn) | 1.7 | i
O=S(=O)(Nc1ncnc2sc3c(c12)CCC3)c1ccc(Cl)s1 | -0.14 | i
O=C(C1CC1)n1cc(C(=S)N2CCOCC2)c2ccccc21 | -0.77 | i
CCc1ccc(N2CC(C(=O)N/N=C/c3ccccc3OC)CC2=O)cc1 (stereo not drawn) | -0.6 | i
Cc1cc(C)c(C#N)c(SCc2ccc3c(c2)OCO3)n1 | 0.02 | i
COC(=O)Nc1nnc(Cc2ccccc2)s1 | 0.57 | i
O=C(C1CC(c2ccc(F)cc2)=NO1)N1CCN(c2ccccc2)CC1 (stereo not drawn) | 1 | i
Fc1ccc(-n2c(-c3ccco3)nc3nc4ccccc4nc32)cc1 | -2.4 | i
CN(CC(=O)Nc1ccccc1Br)C(=O)CCc1ccccc1 | -0.65 | i
CCCCCCOc1ccc(N2C(=O)CC(NCCc3ccc(S(N)(=O)=O)cc3)C2=O)cc1 (stereo not drawn) | -1 | i

Some of these compounds in order of molar mass, lowest first.
SMILES | KCNQ2 inh baseline | KCNQ2 inh
O=C(C1CC(c2ccc(F)cc2)=NO1)N1CCN(c2ccccc2)CC1 (stereo not drawn) | 1 | i
COc1ccccc1NC(=O)C(C)NS(=O)(=O)c1ccc(Cl)cc1 (stereo not drawn) | 0.42 | i
COc1cc(CNn2c(C)n[nH]c2=S)cc(Cl)c1OCC(=O)NC(C)(C)C | -1.2 | i
O=C(C1=C[C@@H](c2ccc3c(c2)OCO3)C[C@@H](OCc2ccc(CO)cc2)O1)N1CCOCC1 | -0.84 | i
CCCCCCOc1ccc(N2C(=O)CC(NCCc3ccc(S(N)(=O)=O)cc3)C2=O)cc1 (stereo not drawn) | -1 | i

Random excerpt: 3 entries already listed
SMILES | KCNQ2 inh baseline | KCNQ2 inh
O=C(C1CC1)n1cc(C(=S)N2CCOCC2)c2ccccc21 | -0.77 | i
O=C(CSc1nc(=O)n2ccccc2n1)NCc1ccccc1Cl | 0.08 | i
Cc1ccc(CCNC(=O)CN(C)S(=O)(=O)c2ccc3c(c2)c(=O)n(C)c(=O)n3C)cc1 | -0.94 | i

Going on with the list.
SMILES | KCNQ2 inh baseline | KCNQ2 inh
O=C1C(Cc2c[nH]c3ccccc23)NC(=S)N1C1CCCCC1 (stereo not drawn) | 0.46 | i
CC(C)(C)c1cc(C(=O)CCN2CCOCC2)cc(C(C)(C)C)c1O | 0.01 | i
CCOP(=O)(OCC)c1nc(-c2ccc(F)cc2)oc1NCc1ccccc1 | -0.8 | i
Cc1ccc(C)c(NC(=O)CN(C)C(=O)c2cc(S(=O)(=O)N3CCOCC3)ccc2N2CCCC2)c1 | -0.27 | i
CCc1ccc2c(c1)C(=O)C[C@]1(CCC[C@H](C)C1)O2 | -0.08 | i
CCOC(=O)/C(C#N)=N/Nc1ccc(S(=O)(=O)Nc2cc(OC)nc(OC)n2)cc1 | -1.5 | i
COc1cc(CN2CCN(c3ccccc3F)CC2)c([N+](=O)[O-])cc1OC | 0.21 | i
Cc1ccc(OCCn2c(NC(=O)c3ccco3)nc3ccccc32)cc1 | 1 | i
COC(=O)c1ccc(C(C(=O)NC2CCCCC2)N(C(=O)Cc2cccs2)C2CC2)cc1 (stereo not drawn) | -0.08 | i
Cc1csc(NC(=O)CSc2nnc(-c3ccc(Cl)cc3)n2N)n1 | -0.96 | i
CCOC(=O)CS(=O)(=O)c1ccc(O)cc1 | -1.6 | i
CC(C)(C)c1cccc(OCCCSc2ncccn2)c1 | -0.03* | -9.2*
COCCn1c(SCC(=O)N2CCN(c3ccccc3)CC2)nc2c(c1=O)SC(C)C2 (stereo not drawn) | 0.05 | i
CCCCCOc1ccc(C2NC(=O)NC2=O)cc1 (stereo not drawn) | 0.54 | i
COc1ccccc1N(CC(=O)NC1CC2CCC1C2)S(=O)(=O)c1ccc(C)cc1 (stereo not drawn) | 0.29 | i

The list goes on.
SMILES | KCNQ2 inh baseline | KCNQ2 inh
O=S(=O)(NCCCSc1ccccc1)c1ccccc1F | -1.9 | i
COCCNC(=S)N1CCC(c2nc(-c3ccc(F)cc3)no2)CC1 | 0.19 | i
Cc1nnc(NC(=O)CSc2nnc3ncccn23)s1 | 1.8 | i
COc1cc(NC(=O)CCNS(=O)(=O)c2ccc3c(c2)CCC(=O)N3)cc(OC)c1 | -1.7 | i
Cc1ccccc1Cn1c(=N)n(CC(O)c2ccco2)c2ccccc21 (stereo not drawn) | 1.2 | i
C#CCN(N(C)c1ncc(C(F)(F)F)cc1Cl)S(=O)(=O)c1ccc2ccccc2c1 | -2.4 | i
C=CCOc1ccc(C2C(C(=O)c3ccco3)=C(O)C(=O)N2Cc2cccnc2)cc1 (stereo not drawn) | -0.1 | i
O=C(NCc1cccs1)c1nc2c(nnn2Cc2ccccc2Cl)c(=O)[nH]1 | 0.07 | i
CN(Cc1ccccc1)S(=O)(=O)c1ccc(NS(=O)(=O)Cc2ccccc2)cc1 | 0.37 | i
O=C(c1cc(-c2ccccc2)nn1-c1ccccc1)N1CCN(S(=O)(=O)c2ccc(F)cc2)CC1 | -0.55 | i
Nc1c(C(=O)c2ccccc2)sc2snc(SCC(=O)c3ccccc3)c12 | 2.8* | -6*
CCN1CCN(c2ccc(S(=O)(=O)N3CCCCC3)cc2NC(=O)Cc2ccc(Cl)c(Cl)c2)CC1 | 0.52 | i
CCCn1ncc(C(=O)N(C)C2CCCN(Cc3ccccc3F)C2)c1C (stereo not drawn) | -1.4 | i
Cc1ccc(S(=O)(=O)NC(=O)Nc2ccc(C)cn2)cc1 | -0.01 | i
CCOc1ccccc1NC(=O)CN(C)S(=O)(=O)c1ccc(OC)c(C)c1 | 0.55 | i

Further results follow.
SMILES | KCNQ2 inh baseline | KCNQ2 inh
Cc1ccc(S(=O)(=O)CC(c2ccccc2)N2CCCCC2)cc1 (stereo not drawn) | -2.5 | i
c1ccc(-n2c(SCC3CCCCO3)nnc2-c2cnccn2)cc1 (stereo not drawn) | 0.02 | i
O=C(Nc1cccnc1)NC1CCCCC1 | 1.2 | i
CC1(C)CC(=O)C=C(NCc2ccc(Cl)c(Cl)c2)C1 | 1.2 | i
CCN(CC)CCN1C(=O)C(O)=C(C(=O)c2ccc(C)o2)C1c1ccccn1 (stereo not drawn) | -0.43 | i
CC(C)C1Oc2ccccc2N(CC(=O)N(Cc2ccccn2)CC2CCCO2)C1=O (stereo not drawn) | 0.95 | i
Cc1ccc(N=C(N)N=C(N)N)c(C)c1 | 0.72 | i
Cc1ccn2c(=O)nc(SCC(=O)OCc3ccccc3)nc2c1 | 0.4 | i
Cc1cccc(NC(=S)N/N=C/c2cccc(O)c2)c1C | 0.28 | i
COC(=O)c1c(-c2ccc(C)cc2)csc1NC(=S)NC(=O)c1cc(OC)cc(OC)c1 | -0.3 | i
Cc1cccc(/C=C2/Sc3ccc(C(=O)NCCN4CCCC4)cc3NC2=O)c1 | -1.2 | i
Fc1ccccc1C(c1nnnn1Cc1ccc2c(c1)OCO2)N1CCN(Cc2ccccc2)CC1 (stereo not drawn) | -0.03 | i
CNC(=S)N(CCc1ccc(S(N)(=O)=O)cc1)C1CC(=O)N(c2ccccc2F)C1=O (stereo not drawn) | -0.23 | i
CCCc1cc(=O)[nH]c(SCC(=O)N2C(C)CCCC2C)n1 (stereo not drawn) | -1.1 | i
CN1CCc2c(sc(NC(=O)C3COc4ccccc4O3)c2C(N)=O)C1 (stereo not drawn) | 1 | i

Next section.
SMILES | KCNQ2 inh baseline | KCNQ2 inh
Cc1cc(NC(=O)c2ccc(Cl)c(S(=O)(=O)N3CCCCC3)c2)no1 | 1 | i
Cc1ccc(N2C(=O)C(NC(=O)c3ccccc3F)(C(F)(F)F)C3=C2CC(C)(C)CC3=O)cc1 (stereo not drawn) | 1.7 | i
CCC(C(=O)N1CCCCCC1)n1nc(C)n2c(cc3occc32)c1=O (stereo not drawn) | -1.3 | i
COc1ccc(OC)c(NC(=O)NCCc2c[nH]c3ccccc23)c1 | 0.48 | i
CC(C)OCCCNS(=O)(=O)c1ccc2ccccc2c1 | 1.5 | i
COc1ccc(C(=O)NC2CCN(C(=S)Nc3ccc(C)c(C)c3)CC2)cc1 | -0.02 | i
Cc1ccc(Cc2nc3ccccc3[nH]2)cc1 | 0.92 | i
Cc1ccc(C)c(C(=O)CSc2n[nH]c(C)n2)c1 | -0.1 | i
Cc1ccc(C(C)NC(=O)c2cc3ccccc3oc2=O)cc1C (stereo not drawn) | 0.95 | i
Cc1nc(N2CCN(C)CC2)c2sc(=S)n(-c3ccccc3)c2n1 | -1.5 | i
O=C(c1ccc(F)cc1)C1CCN(C(=O)Nc2ccc(F)cc2)CC1 | -0.03 | i
Cc1ccc(S(=O)(=O)/C(C#N)=C/c2c(Oc3ccc(Cl)cc3)nc3c(C)cccn3c2=O)cc1 | -1.1 | i
O=C(NCCN1CCOCC1)c1ccc(/C=C2\Sc3ccccc3N(Cc3ccccc3F)C2=O)cc1 | -1.9 | i
CCN1CCN(Cc2ccc(NC(=O)Nc3cccs3)cc2)CC1 | 0.05 | i
O=C(CSc1nc2ccccc2c(=O)n1Cc1ccco1)Nc1cccc(O)c1 | -1.6 | i

The list goes on:
SMILES | KCNQ2 inh baseline | KCNQ2 inh
CC(C)[C@H](NC(=O)c1ccco1)C(=O)NCc1ccccc1 | -2 | i
Cc1ccc2c(C)nc(Nc3nc(CSc4nnnn4-c4ccccc4)cc(=O)[nH]3)nc2c1 | 1.1 | i
COc1ccc(CS(=O)(=O)c2ncn[nH]2)cc1 | -0.59 | i
CC1CN(C(=O)/C(=C/c2ccco2)NC(=O)c2ccccc2)CC(C)O1 (stereo not drawn) | -1.9 | i
Cc1ccc2c(c1)C(c1ccccc1)N(C(=O)c1ccc(S(=O)(=O)N3CCOCC3)cc1)CC(=O)N2 (stereo not drawn) | 1.2 | i
O=C(Nc1ccc(F)cc1)C(=O)c1c(O)[nH]c2ccc([N+](=O)[O-])cc12 | 0.68 | i
CCCCNC(=O)CC1N=C2c3ccccc3N=C(SCC(=O)Nc3cccc(C)c3)N2C1=O (stereo not drawn) | 2.6 | i
Cc1onc(-c2ccccc2)c1C(=O)Nc1ccccc1C#N | -1.4 | i
CCOC(=O)CNC(=S)N(Cc1ccco1)Cc1ccccc1Cl | 0.27* | -6.5*
C/C(=N/NS(=O)(=O)c1ccc(C)c(C)c1)c1c[nH]c2ccccc12 | 1.3 | i
Cc1cc(/C=N/n2cnnc2)c(C)n1-c1ccc(OCc2ccccc2F)cc1 | 2.3 | i
C#CCN1C(=O)S/C(=C\c2ccc(N3CCOCC3)cc2C)C1=O | 0.29 | i
COC(=O)C1=C(C)N(c2ccc(OC)cc2)C(C)=C(C(=O)OC)C1c1ccc(OC)cc1 | 0.51 | i
COC(=O)c1ccc(C(=O)OC)c(NC(=S)N2CCN(c3cc(Cl)ccc3C)CC2)c1 | 2.4 | i
CC(=O)CCSc1nnc(-c2cccc(S(=O)(=O)N3CCOCC3)c2)o1 | -0.28 | i

(cont.)
SMILES | KCNQ2 inh baseline | KCNQ2 inh
O=C(Nc1ccccc1N1CCOCC1)c1ccc2nc[nH]c2c1 | 1.4 | i
COc1ccc(/C=N/Nc2cc(C)nc3c(C)cccc23)cc1 | -2.3 | i
O=C(OCc1ccc(Cl)cc1Cl)c1ccncc1 | 2.5 | i
C#Cc1ccc([C@H]2C=C(C(=O)N3CCN(Cc4ccc5c(c4)OCO5)CC3)O[C@@H](OCC)[C@@H]2CCCO)cc1 | 1.4 | i
CCCCc1ccc(S(=O)(=O)N/N=C(/C)c2ccncc2)cc1 | -1.4 | i
CSc1ccc(NC(=O)c2cccnc2)cc1C#N | -1.3 | i
C/C(CC(=O)NC12CC3CC(CC(C3)C1)C2)=N\NC(=O)c1ccc(C)cc1 | -0.88 | i
